Rce1 inh – yeast Ras-converting enzyme inhibition | calls only | yeast membranes, quenched prenylated peptide cleavage fluorescence | Q03530 | hit rate 0.27% among 290,000;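 active = fall in fluorescence gain of 50% or more versus controls, with final raw signal at or below 3038400; inconclusive = same 50% fall but final raw signal above 3038400; inactive = fall in fluorescence gain under 50%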;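 note: plate controls were neutral control wells for no effect and wells lacking membranes for full effect; tested at 10 µM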
Target sequence (Q03530 whole entry, looked up): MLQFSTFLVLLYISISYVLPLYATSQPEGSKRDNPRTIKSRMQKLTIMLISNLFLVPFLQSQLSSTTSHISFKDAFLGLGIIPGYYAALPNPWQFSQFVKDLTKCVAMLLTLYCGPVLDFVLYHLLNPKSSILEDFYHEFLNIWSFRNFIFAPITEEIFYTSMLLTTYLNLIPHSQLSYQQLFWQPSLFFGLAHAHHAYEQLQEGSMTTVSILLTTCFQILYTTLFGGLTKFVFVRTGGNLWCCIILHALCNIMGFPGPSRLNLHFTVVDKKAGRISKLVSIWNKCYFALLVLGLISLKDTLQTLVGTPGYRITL
Env fusion inh – HIV envelope-mediated fusion inhibition. HeLa-JRFL Env/CEM21 cell fusion, luciferase. inhibition, % at 12.3 µM. hit rate 1.1% among 360,000;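 active = mean replicate inhibition score of at least 50 and every replicate individually at or above 50; inconclusive = only one of the two criteria met; inactive = mean below 50 and not all replicates reaching 50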;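 note: 0% = plate neutral controls and 100% = maraviroc near 300 nM; one replicate is shown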
PABP polyA inh – PABP-poly(A) binding inhibition; inhibition, % at 35 µM; AID 2014; P11940; hit rate 1% among 290,000; PABP-poly(A) RNA binding, fluorescence polarization;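 active = 50% or more with normal probe brightness, or confirmed in later tests; inconclusive = above 50% with abnormal brightness, or retests that disagree; inactive = below 50% or failed in later tests; about a fifth of its hits are not listed in these tables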;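 note: calls also rest on retests at 20 µM and on dose response follow-up; controls were probe without protein and protein plus probe with vehicle; some compounds called inactive have numbers as strong as hits; many hits fall short of the cut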
Target sequence (P11940 whole entry, looked up): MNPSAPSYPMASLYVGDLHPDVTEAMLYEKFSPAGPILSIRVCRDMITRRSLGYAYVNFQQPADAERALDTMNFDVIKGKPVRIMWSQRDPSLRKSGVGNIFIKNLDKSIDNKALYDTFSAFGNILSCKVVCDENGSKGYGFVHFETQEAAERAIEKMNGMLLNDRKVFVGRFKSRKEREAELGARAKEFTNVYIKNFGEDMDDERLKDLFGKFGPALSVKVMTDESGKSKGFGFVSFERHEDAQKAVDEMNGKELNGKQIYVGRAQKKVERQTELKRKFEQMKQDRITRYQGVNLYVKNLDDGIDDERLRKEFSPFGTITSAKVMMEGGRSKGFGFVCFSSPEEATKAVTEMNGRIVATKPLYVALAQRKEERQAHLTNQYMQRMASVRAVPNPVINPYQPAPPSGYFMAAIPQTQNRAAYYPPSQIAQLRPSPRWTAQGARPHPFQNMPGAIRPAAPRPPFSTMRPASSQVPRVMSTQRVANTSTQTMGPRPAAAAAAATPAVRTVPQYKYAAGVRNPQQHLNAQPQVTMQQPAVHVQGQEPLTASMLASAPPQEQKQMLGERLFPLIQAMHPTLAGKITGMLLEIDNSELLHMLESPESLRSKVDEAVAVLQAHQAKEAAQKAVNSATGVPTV
CSC inhib – blocks cancer stem cells | AID 2717 | inhibition, % at 7.5 µM | cancer stem cell-like cells viability, luminescence | hit rate 1.1% among 300,000;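 active = mean at 75% or more and at least half the replicates too; inconclusive = mean and replicates disagree; tested in HMLE shEcad cells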;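 note: 0% = median of negative and 100% = median of positive control wells; the first replicate is given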
MT1-MMP act inh – inhibitors of human MT1-MMP activation; HT1080 RFP-PRO-GFP cells, GFP/RFP ratio fluorescence, overnight; percent of plate control window, DMSO zero; GFP/RFP ratio change, % at 20 µM; P50281; hit rate 0.061% among 360,000;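 active = GFP/RFP ratio change of at least 30% with cell ATP level not reduced by more than half and red fluorescence within 50% of control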; note: strong numbers were not always called active
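Assay system: HT1080 RFP-PRO-GFP cells | Dosing: 20 µM single dose, 1% DMSO | Incubation: Cells overnight before dosing, compound overnight, 37 °C, 5% CO2 | Evaluation: GFP/RFP fluorescence ratio | Control set: DMSO-only wells and HT1080 RFP-L50D-GFP cell wells as references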
eIF4H inh – inhibitors of RNA binding by human eIF4H | eIF4H fluorescence polarization binding assay | Q15056 | AID 2012 | hit rate 0.94% among 290,000 | inhibition, % at 35 µM;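 active = 50% or more with normal probe brightness, or confirmed in later tests; inconclusive = above 50% with abnormal brightness, or retests that disagree; inactive = below 50% or failed in later tests; about a fifth of its hits are not listed in these tables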;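 note: calls also rest on retests at 20 µM and on dose response follow-up; 0% = protein and probe with vehicle and 100% = probe without protein; strong numbers were not always called active; many hits fall short of the cut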
Yeast UUG start – yeast start codon fidelity modulation. S. cerevisiae UUG-firefly luciferase reporter, luminescence/redox ratio. hit rate 0.13% among 350,000. activity score, % at 18.7 µM;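 active = replicate mean at a twofold rise or more, about +100% in these data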;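 note: firefly luciferase made from a UUG start codon reports start codon fidelity; reporter light over untreated wells divided by growth signal over untreated wells; some hits fall short of that in this replicate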
eIF4H inh retest – also measured in eIF4H inh; calls as there; inhibition, %; compound at 20 µM; confirmation average;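 mean of two retest wells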
PABP polyA inh retest – also measured in PABP polyA inh; calls as there; inhibition, %; compound at 20 µM; confirmation repeats;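 mean of two retest wells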
MT1-MMP act inh RFP – also measured in MT1-MMP act inh; calls as there; RFP signal change, %; measured here: RFP expression control read;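 0 = vehicle wells; hits needed this value within 50% of zero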
* marks the source's active call; other numbers are inactive results; i = inactive; ? = inconclusive; / = not tested or not shown; & = joins results of further samples. This is a subset; the hit share may differ from the screen's.

SMILES	Rce1 inh	Env fusion inh	PABP polyA inh	CSC inhib	MT1-MMP act inh	MT1-MMP act inh RFP	eIF4H inh	Yeast UUG start	others
CCOC(=O)c1c(CN(C)C)n(C)c2ccc(OC(C)=O)cc12	i	/	2	/	2	5	-8	12
CCN(Cc1ccncc1)Cc1c(O)ccc2cc(Br)ccc12	i	-14	0	/	4	4	9	/
Cc1cc(C)c(NC(=O)Nc2ccccc2)c(Cl)c1	i	/	-5	8	1	3	-10	/
Cc1ccnc(NS(=O)(=O)c2ccc(C(C)(C)C)cc2)c1	i	6	2	2	/	/	5	/
CCCc1cc(=O)n2nc(N3CCC(C(=O)Nc4c(F)c(F)c(F)c(F)c4F)CC3)sc2n1	i	0	-1	9	2	1	-9	-13
CCOC(=O)/C(O)=C/c1ncc(C(F)(F)F)cc1Cl	i	/	-2	/	1	8	-9	-1
CCOc1ncccc1C(=O)OCC(=O)NCCc1ccccc1	i	/	-6	-19	4	10	-1	-23
COCCn1c(C)cc(C2=NNC(=Nc3ccccc3F)SC2)c1C	i	35	23	2	8	0	11	-13
CC(C)OCCCNC(=O)c1ccc2c(c1)NC(=O)c1ccccc1S2	i	25	-3	2	4	-6	-7	-8
CN(CC(=O)Nc1ccc(F)cc1)C(=O)COC(=O)/C=C/c1ccc(OC(F)F)cc1	i	-8	/	-19	2	2	/	-14
C=CCn1c(-c2ccc(Cl)cc2)ccc(C#N)c1=O	i	-47	-8	-3	-5	-1	-7	-22
Cc1ccc(C#CC(C)(O)C(C)(C)C)cn1 (centres undefined)	i	-13	0	3	2	1	3	-21
CCOC(=O)c1oc2cc(OC(C)=O)ccc2c(=O)c1-c1ccc(OC)c(OC)c1	i	-10	-2	-3	-4	1	8	8
O=[N+]([O-])c1cccc(/C=N/NC2CCS(=O)(=O)C2)c1 (centres undefined)	i	-14	-6	-4	-2	1	0	-14
COc1ccc2[nH]c(-c3ccccc3)cc2c1	i	-83	10	17	4	-2	-11	-17
CC(C)(C)OC(=O)N1CCN(C(=O)c2[nH]cnc2C(=O)Nc2nccs2)CC1	/	-7	/	-23	1	1	/	-36
COc1ccc(S(=O)(=O)Nc2ccc3cn[nH]c3c2)cc1C	i	21	3	/	-1	-10	6	/
C=CCn1c(SCc2ccc(Br)cc2F)nc2cc(C(=O)O)ccc2c1=O	i	-14	20	-12	6	0	0	2
CC(C)CCSc1nc(N2CCOCC2)c2c(c1C#N)CC(C)(C)OC2	i	6	-3	/	-10	-11	-4	-1
CCc1ccc(C(=O)C(C)OC(=O)C2COc3ccccc3O2)cc1 (centres undefined)	i	-10	2	-8	1	0	-2	/
O=C(/C=C/c1ccccc1)NCCCNC(=O)/C=C/c1ccccc1	i	2	17	5	8	8	-14	-9
CCCN(C)C[C@@H]1OCc2cnnn2CCCC(=O)N([C@H](C)CO)C[C@H]1C	/	-86	/	/	-1	1	/	1&-13
O=C(CCN1CCCC1)Nc1cccc(Br)c1	i	/	6	-10	2	9	16	-21
Cc1ccc(C(=O)CC(C(=O)O)n2cnc([N+](=O)[O-])n2)cc1 (centres undefined)	i	-8	5	-2	1	1	-7	/
CC(=O)Nc1nc(C)c(Oc2ccccc2)c(=O)[nH]1	i	5	-1	-3	1	2	-7	-11
Cn1c(=O)c2c(ncn2CC(=O)Nc2cc(S(=O)(=O)N3CCCCC3)ccc2O)n(C)c1=O	/	-18	/	5	3	3	/	-13
Cc1ccc(C(=O)N2CCC3(CC2)Oc2ccc(Cl)cc2C(=O)C32CC(c3ccccc3)=NO2)s1 (centres undefined)	i	-57	-9	-1	-6	-3	-6	-15
CCCN1CCN(S(=O)(=O)c2ccc(-n3cnnn3)cc2)CC1	i	-10	-10	/	4	-1	-5	23
CCOC(=O)N1CCN(CC(=O)Nc2c(C(=O)OC)[nH]c3ccc(Cl)cc23)CC1	i	/	4	/	0	-19	2	-2
COc1ccc(CCNC(=O)CN2C(=O)C(=O)N(C3CCCC3)C2=O)cc1OC	/	6	/	4	-2	-1	/	/
O=C1N(c2ccccc2)C(c2ccc(Cl)cc2)N2CCCN12 (centres undefined)	i	/	4	-4	-2	1	-5	/
O=C(Nc1scc(-c2ccc(F)cc2)c1C(=O)O)c1ccco1	i	/	15	11	3	-4	-4	13
Cn1c(N)c(C(=O)COC(=O)C2CCN(S(=O)(=O)c3cccs3)CC2)c(=O)n(C)c1=O	i	7	2	-14	-5	-1	-3	-10
Cc1ccc(-c2cc(C(=O)NCC3(N(C)C)CCCCC3)c3ccccc3n2)o1	/	-11	/	/	0	2	/	-13
COc1ccc(CCC(C)Nc2ccc(F)c(F)c2)cc1 (centres undefined)	i	/	1	12	2	5	-5	/
O=c1sc(N2CCN(c3ccc(F)cc3)CC2)nc2ccsc12	i	-9	-1	-1	-1	2	2	-12
C=CCC1(Cl)C(=O)C(Cl)=C(N2CCN(C)CC2)C1(OC)OC (centres undefined)	i	-5	-2	-2	3	4	-9	-16
CCN(CC)C1=CC2=CC(=C(C#N)C#N)CCC2CC1 (centres undefined)	i	9	-7	-1	-20	60	?	/
Clc1ccc(-n2ncc3c(NCc4cccnc4)ncnc32)cc1Cl	i	-82	/	1	-8	-24	/	-2
Cc1ccccc1-c1noc(-c2ccccc2C(=O)N2CCCC2)n1	i	/	-8	-7	-2	-1	-2	13
CC(Oc1ccccc1)C(=O)N(CCC1=CCCCC1)c1c(N)n(Cc2ccccc2)c(=O)[nH]c1=O (centres undefined)	i	-28	14	-3	-1	-6	-10	-18
CCOc1ccc(C(c2c(NC(=O)c3ccccc3)sc(C)c2C)N2CCN(CCO)CC2)cc1 (centres undefined)	i	-38	-7	29	0	-4	4	/
CCc1nc2ccc(C(=O)NCCCN(C)C)cn2c1N(CC)CCOC	/	6	/	/	-7	3	/	-3
CCn1c2ccccc2c2nnc(SCC(=O)c3ccccc3)nc21	/	-14	-2	10	3	-5	-5	-14
Cn1c(=NC(=O)COc2ccccc2)sc2cccc(F)c21	i	-46	10	4	-2	3	-5	/
N#CC1(NC(=O)COC(=O)CCN=C2NS(=O)(=O)c3ccccc32)CCCCC1	i	-1	2	-10	1	4	-2	-5
O=C(c1cc(-c2ccc(Cl)cc2)on1)N1CCc2ccccc2C1	i	-1	9	5	0	1	8	14
CCN(CC)c1ccc(O)c(C=Nc2ccc(C)c(C)c2)c1	i	1	-2	-6	0	2	-7	1
N#CCSc1nc2ccccc2o1	i	6	8	-7	-2	-3	-8	/
Cc1ccccc1S(=O)Cc1ccc(C(=O)N2CCN(C3CCCCC3)CC2)o1 (centres undefined)	/	15	/	/	5	4	/	-1
Cc1ccc(NCC(=O)N/N=C\C(Br)=C\c2ccccc2)cc1	i	/	9	40	-2	1	-2	-16
Cc1cccc(OCC(=O)Nc2nc3ccc([N+](=O)[O-])cc3s2)c1	i	/	-5	41	2	-2	-8	/
Cc1ccc(C2(CCN)CCOC(C(C)C)C2)cc1 (centres undefined)	i	6	17	0	-4	-3	12	/
Cc1ccc(CNC(=O)C2(c3cccs3)CCOCC2)cc1	i	/	-6	3	6	3	5	-2
C/C(Cl)=C/Cn1c(N2CCCC2)nc2c1c(=O)n(C)c(=O)n2C	/	/	-8	25	4	-2	-5	-15
Cc1ccc(C)c(C2=NNC(=O)CC2)c1	i	4	/	1	-1	5	/	/
COc1cccc(N=Nc2ccc3ccccc3c2O)c1	i	-323	9	-16	43	31	17	-26
O=C(NS(=O)(=O)NC1CCCCC1)C1=C(N2CCCC2)COC1=O	/	-5	/	/	-2	0	/	10
Cc1cccn2cc(COc3cccc([N+](=O)[O-])c3)nc12	i	3	1	8	4	-1	2	/
O=[N+]([O-])c1ccc(/C=C/c2ccc3cccc([N+](=O)[O-])c3n2)cc1	i	-83	3	8	-2	2	16	/

Sorted by number of heavy atoms (low to high): some entries from above.
SMILES	Rce1 inh	Env fusion inh	PABP polyA inh	CSC inhib	MT1-MMP act inh	MT1-MMP act inh RFP	eIF4H inh	Yeast UUG start	others
Cc1ccc(C2(CCN)CCOC(C(C)C)C2)cc1 (centres undefined)	i	6	17	0	-4	-3	12	/
Cc1cccn2cc(COc3cccc([N+](=O)[O-])c3)nc12	i	3	1	8	4	-1	2	/
N#CC1(NC(=O)COC(=O)CCN=C2NS(=O)(=O)c3ccccc32)CCCCC1	i	-1	2	-10	1	4	-2	-5

(cont.)
SMILES	Rce1 inh	Env fusion inh	PABP polyA inh	CSC inhib	MT1-MMP act inh	MT1-MMP act inh RFP	eIF4H inh	Yeast UUG start	others
CCOC(=O)c1[nH]c(CO)c(C(=O)OCC)c1C	i	1	5	-9	1	-4	2	-19
CCOC(=O)C(NS(=O)(=O)c1ccccc1)(C(F)(F)F)P(=O)(OC(C)C)OC(C)C (centres undefined)	i	/	7	-14	2	6	9	-8
CC(C)(C)NC(=O)Cn1nnc(-c2ccc(S(C)(=O)=O)cc2)n1	i	-19	-4	-4	-4	-1	6	-16
O=C1/C(=C/C=C/c2ccco2)SC(=S)N1c1ccc(O)cc1	i	9	77*	17	1	24	80*	/
COc1ccccc1N(C)S(=O)(=O)c1ccc(Cl)c(C(=O)NCCCN2CCOCC2)c1	i	10	5	-22	1	3	-9	-6
CCCN(CC(=O)Nc1ccccc1C)C(=O)c1ccc(NC2CC2)c([N+](=O)[O-])c1	i	-18	/	-5	3	0	/	/
Cc1ccc(C2C(C#N)=C(N)Oc3c2sc2ccccc32)o1 (centres undefined)	i	/	67	-9	/	/	49	/	eIF4H inh retest=31;PABP polyA inh retest=45
COC(=O)CCC(=O)NNC(=O)c1ccc(Br)cc1	i	29	3	9	-9	3	10	2
CCOC(=O)C1=C(O)C(=O)N(c2ccc(S(N)(=O)=O)cc2)C1c1ccc([N+](=O)[O-])cc1 (centres undefined)	i	4	10	-9	2	3	-6	/
O=c1cc(CSc2n[nH]c(=O)n2C2CC2)c2ccc(O)cc2o1	i	-7	-3	-8	-2	1	1	-9
CCN(CC)CCn1c(=S)[nH]c2ccc(Br)cc2c1=O	i	-3	4	-20	4	8	3	/
CCCCNC(=S)N(C)/N=C/c1sc(N2CCCCC2)nc1-c1cccs1	i	/	-7	20	/	/	-12	/
COc1ccc(O)c(CN2CCN(CCCc3ccccc3)C(CCO)C2)c1 (centres undefined)	i	14	-3	9	3	2	-6	-16
C(CCN1CCOCC1)CN1CCOCC1	/	-2	/	/	5	2	/	-11
Cc1cc(Oc2ccc(=O)n(C)n2)nc(=S)[nH]1	i	/	7	-12	/	/	4	/
Cc1cc(N2CCN(S(=O)(=O)c3ccccc3)CC2)c2ccccc2n1	i	26	-16	5	2	-4	-9	-9
O=C(CN1C(=O)c2ccccc2S1(=O)=O)c1ccccc1F	i	33	3	18	-2	1	-3	-18
O=C(CCCOc1ccccc1)NNC(=O)c1ccncc1	/	9	/	-13	0	-1	/	-13
COC(=O)COc1cccc(NC(=O)c2cccs2)c1	i	-53	-5	-12	-11	2	-4	-9
O=c1cc(O)c2ccccc2[nH]1	i	15	2	/	-3	0	-4	-14
CCCCC1=CC2=C(c3ccco3)C(=O)C(C)(OC(=O)c3ccc(OC)cc3)C(=O)C2=CN1CCN1CCOCC1 (centres undefined)	i	/	?	9	-11	8	?	29
CN(Cc1ccccc1)C(=O)c1ccc(NC(=O)c2ccccc2)cc1	i	13	3	2	-1	1	-3	-6
CCCN1CCN(C(=O)c2ccc(CS(=O)c3ccc(Br)cc3)o2)CC1 (centres undefined)	/	?	/	/	2	4	/	-7
Cc1cc(-c2ccccc2)nc(N/N=C/c2ccc(O)cc2O)n1	i	-5	7	96*	6	-4	18	-38
